High-throughput results deposited in PubChem BioAssay by National Center for Advancing Translational Sciences (NCATS).
GLA inh pH 4.5: blocks human alpha-galactosidase A at pH 4.5. P06280. purified enzyme, 4-MU-alpha-Gal fluorescence, pH 4.5. activity change, negative = inhibition, % at 105 µM. 230,000 tested, under 10 active; inconclusive = small, poorly fitted or top-dose-only inhibition, or a rising curve; inactive = flat fitted curve, though single readings scatter; no compound was filed as active;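 note: 0% = full activity with enzyme and -100% = basal without enzyme; dose as in the result columns while the protocol names 77 µM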
Target sequence (P06280 whole entry, looked up): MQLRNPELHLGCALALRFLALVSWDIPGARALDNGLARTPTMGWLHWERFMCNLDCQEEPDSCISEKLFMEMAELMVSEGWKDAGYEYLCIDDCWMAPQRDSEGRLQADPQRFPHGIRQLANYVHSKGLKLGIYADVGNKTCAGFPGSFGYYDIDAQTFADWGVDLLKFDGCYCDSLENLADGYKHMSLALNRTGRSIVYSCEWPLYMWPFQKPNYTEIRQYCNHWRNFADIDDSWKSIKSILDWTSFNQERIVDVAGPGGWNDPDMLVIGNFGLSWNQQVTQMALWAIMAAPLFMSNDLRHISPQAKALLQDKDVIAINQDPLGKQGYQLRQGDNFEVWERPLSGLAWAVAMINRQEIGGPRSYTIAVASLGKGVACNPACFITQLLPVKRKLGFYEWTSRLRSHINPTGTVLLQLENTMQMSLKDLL
miR-21 FLuc: miR-21 reporter, rising signal | HeLa miR-21 FLuc reporter, luciferase, 48 h | Potency, µM (top dose mostly 38.3 µM), for inactives: top-dose reporter change, positive = more light | 340,000 tested, under 10 active | AID 2288; active = well fitted rising curve with a large enough effect; inconclusive = small, poorly fitted or top-dose-only effect; inactive = no such curve, though single readings can be large or run the other way;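 note: % of control where 0% means no effect; miR-21 action dims this reporter so a rising signal means less miR-21 action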
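HeLa miR-21-FLuc reporter line, endogenous miR-21; 2000 cells/well in DMEM/10% FBS; compound titration up to ~40uM final, 48 h, 37 degree Celsius; luciferase detection reagent, 15 min lysis, CCD luminescence.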
Rango-impB inh: inhibitors of Rango-importin beta complex formation | Q14974 | 340,000 compounds, 0.031% hits | Potency, µM (top dose mostly 92.2 µM), without a hit: at the top dose inhibition of complex formation | AID 540263 | Rango CFP/YFP FRET sensor + importin beta, 45 min; active = rising FRET ratio curve, often small or poorly fitted; inconclusive = mostly compound fluorescence or quenching in the first reads; inactive = flat curves in all reads;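 note: potency is the fitted concentration of half-maximal effect; 0% = DMSO wells and 100% = buffer wells lacking importin beta; nearly all actives have a fitted effect of over 15% in size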
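FRET biosensor Rango (snurportin 1 IBB between N-terminal EYFP and C-terminal Cerulean), 50 nM in PBS/1 mM DTT/0.02% Tween-20/0.1% BSA, preincubated 5 min RT with compound; 0.125 microM importin beta added, 45 min RT, CFP/YFP FRET ratio read.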
Rango dissoc inh: prevents RanGTP from dissociating the Rango-importin beta complex; Potency, µM (doses to about 46.1 µM), for the others: top-dose activity change, negative = inhibition; O95149+P62826; 340,000 compounds, 0.071% hits; Biochemical FRET Rango-importin beta, RanGTP-induced dissociation; AID 540253; active means falling FRET ratio curve, often poorly fitted, with flat reads before Ran was added; inconclusive means other falling curves, or compound fluorescence or quenching; inactive means flat or rising ratio curve;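 note: potency is the fitted concentration of half-maximal effect; % of control where 0% means no effect; nearly all actives have a fitted effect of over 45% in size; -100% = wells without RanGTP and RCC1; the record marks most hits as doubtful in a second field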
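Rango (0.1 uM)–importin beta (0.25 uM) complex; RanGTP-RCC1 trigger; 45 min RT; CFP/YFP FRET read.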
The depositor's hits bear a star; ? = inconclusive; · = not tested or not shown; & = joins results of further samples.

Value order – miR-21 FLuc	Rango dissoc inh	GLA inh pH 4.5	Rango-impB inh
#1 Cc1nc(NC(=O)COC(=O)CCc2nc3ccccc3s2)c(Cl)cc1Cl
    -5%	-5%	-5	-0.8%
#2 O=[N+]([O-])c1ccc(S(=O)(=O)N2CCN(Cc3c[nH]c4ccccc34)CC2)cc1
    -1%	0%	-2	-2.6%
#3 CC1(C)CC(=O)C=C(Nc2ccccc2O)C1
    -2%	-9%	-1	-1.6%
#4 O=C(NNc1ccc(-c2csnn2)cc1)c1ccccc1C(F)(F)F
    -4%	-11%	0	-5.6%
#5 Cc1nc(S(=O)(=O)N2CCOCC2)c(C#N)c(C)c1Cl
    -1%	2%	-5	0.0%
#6 CCN(C(=O)COC(=O)c1cc(OC)ccc1Br)C1CCS(=O)(=O)C1 (stereo unspecified)
    ·	19%	·	0.4%
#7 O=C(Nc1ccc2ccccc2c1)c1ccc(NS(=O)(=O)c2ccc(Br)s2)cc1
    -30%	13%	?	-0.7%
#8 CCS(=O)(=O)N1Cc2ccccc2CC1C(=O)Nc1cccc(S(=O)(=O)N(C)C)c1 (stereo unspecified)
    -17%	9%	·	0.1%
#9 Cc1ccc(Cl)cc1NC(=O)C(Cc1ccccc1)N1C(=O)C2C3CCC(C3)C2C1=O (stereo unspecified)
    10%	40%	1	7.3%
#10 CC(C)Cn1c(N)c(C(=O)COC(=O)c2cnc(Cl)c(Cl)c2)c(=O)n(C)c1=O
    1%	-8%	-2	-5.4%
#11 CC1(OC(=O)C2CCCC2)C(=O)C=C2C=C(c3ccsc3)N(C3CCCCC3)C=C2C1=O (stereo unspecified)
    3%	?	11&-8	?
#12 c1ccc(CC2CNc3ccccc3CN2)cc1 (stereo unspecified)
    -3%	7%	1	-0.8%
#13 O=C(O)c1ccc(N2C(=O)c3cccnc3C2=O)cc1
    -3%	-6%	-8	1.0%
#14 CC(C)N=c1scc(-c2ccco2)n1/N=C/c1ccc(O)c(O)c1
    -41%	1%	-6	-0.6%
#15 CCOC(=O)NC(=S)c1ccc[nH]1
    -12%	-4%	2	-2.6%
#16 Cc1ccc(NC2CCCN(C(=O)CCC3(C)CC3)C2)cc1C (stereo unspecified)
    -12%	-3%	·	1.3%
#17 CCC(C)NS(=O)(=O)c1cccs1 (stereo unspecified)
    -2%	3%	-13	-0.7%
#18 O=c1cc(-c2ccco2)oc2ccccc12
    ·	12%	·	-1.5%
#19 O=C(Nc1ccc(-c2cscn2)cc1)C1CCCN(Cc2ccccc2)C1 (stereo unspecified)
    11%	-4%	·	-0.6%
#20 COc1ccccc1-n1c(CNC(=O)c2ccccc2)nnc1SCC(=O)Nc1nnc(C)s1
    0%	-2%	3	-2.5%
#21 CCCCCCn1c(Br)nc2c1c(=O)n(C)c(=O)n2C
    1%	1%	-2	0.1%
#22 O=C1CCCN1CCCNC(=S)Nc1ccccc1Cl
    -2%	1%	4	0.4%
#23 COc1ccc(CNCC(O)(c2ccccc2)c2ccccc2)cc1
    -3%	-2%	·	6.7%
#24 O=C(NC1CCC(NC(=O)C(F)(F)C(F)F)CC1)C(F)(F)C(F)F (stereo unspecified)
    5%	-19%	2	?
#25 CCOc1cc(CNS(=O)(=O)c2ccc3c(c2)CC(=O)N3C)cc(OCC)c1OCC
    -1%&0%	1%	·	-1.9%
#26 CCC(CO)Oc1cc(NCc2cccc(C)c2)c2ncn(C(C)C)c2c1 (stereo unspecified)
    ·	?	·	?
#27 Cc1cc(NC(=O)Nc2ccc(Cl)c(Cl)c2)n(-c2ccccc2)n1
    -4%	-14%	-3	-0.9%
#28 Cc1cccc(C)c1NC(=O)CSCCO
    0%	-14%	12	0.4%
#29 COc1ccccc1NS(=O)(=O)c1ccc(C(=O)NCC(c2ccc(F)cc2)N2CCOCC2)cc1 (stereo unspecified)
    ·	-11%	·	0.5%
#30 CN1C(=O)/C(=C/c2ccc(C(F)(F)F)cc2)Sc2ccc(C(=O)N3CCN(c4ccccn4)CC3)cc21
    0%	-19%	·	?
#31 CC(=O)N(CCc1cccc(C)c1)Cc1cc2cc(C)ccc2[nH]c1=O
    0%	21%	·	-2.5%
#32 CCC(CC)NC(=O)COC(=O)c1cc(Br)ccc1Cl
    -4%	-7%	-1	2.1%
#33 O=CNc1c(Br)cc2c(c1Br)Cc1cc(Br)ccc1-2
    ·	-7%	·	0.6%
#34 O=C(C1CCN(S(=O)(=O)c2cccs2)CC1)N1CCCCCC1
    -13%	0%	-1	-3.1%
#35 COc1ccc(C(=O)N2CCCCC2C(=O)Nc2ccc(-n3nc(C)cc3C)cc2)o1 (stereo unspecified)
    2%	-1%	·	-1.3%
#36 COc1cc(NS(=O)(=O)c2ccc(NC(=O)CN3C(=O)c4ccccc4C3=O)cc2)ncn1
    3%	2%	-4	4.2%
#37 O=C(Nc1ccc(Br)cn1)c1cccc2c1-c1ccccc1C2=O
    7%	-5%	-7	5.0%
#38 CCCc1cc(=O)n2[nH]c(CCc3ccccc3)nc2n1
    -3%	3%	5	-0.7%
#39 CN(C)CC(O)COC(c1ccc(Cl)cc1)c1ccc(Cl)cc1 (stereo unspecified)
    -1%	13%	6	-1.4%
#40 CCOc1cc(/C=N/Nc2ncc(C)c(=O)[nH]2)ccc1O
    10%	-7%	·	0.8%
#41 Brc1ccc(-c2csc(N/N=C/c3ccco3)n2)cc1
    -33%	?	-2	1.8%
#42 CCOC(=O)C1C(=O)C=C(c2cccs2)CC1c1ccccc1 (stereo unspecified)
    -5%	-8%	-4	-3.3%
#43 Cc1ccc(SCC(=O)Nc2cccc(NC(=O)c3ccco3)c2)cc1
    -9%	-3%	-13	-2.2%
#44 O=c1[nH]c(=O)n(CCO)c2nnn(Cc3ccccc3)c12
    -4%	-10%	4	0.7%
#45 COc1ccccc1/C=C/CN1CCN(c2ccccc2)CC1
    -6%	13%	-1	-2.0%
#46 Cc1ccc2[nH]c(=O)c3cc(C(=O)N(CCCOC(C)C)Cc4ccco4)sc3c2c1
    29%&-12%	12%	-9	1.2%
#47 CN(C)S(=O)(=O)c1cccc(COC(=O)CNC(=O)c2ccc(Br)o2)c1
    ·	1%	·	4.9%
#48 Cc1ccc(S(=O)(=O)c2ccc([N+](=O)[O-])cn2)cc1
    ?	-6%	·	0.0%
#49 CCN(CC)C(=O)C1CCN(Cc2ccc(Br)cc2)CC1
    0%	33%	6	0.8%
#50 Cc1cc(OCc2nc(-c3cccs3)no2)cc(C)c1Cl
    -34%	5%	-11	5.6%
#51 CCC(CO)Oc1cc(NC(=O)c2ccccc2)c2ncn(C(C)C)c2c1 (stereo unspecified)
    ·	1%	·	0.4%
#52 Nc1cc([N+](=O)[O-])ccc1Nc1ccccc1
    -1%	-4%	-4	1.0%
#53 O=C(C1=C(O)C(=O)N(Cc2ccccc2)C1c1ccco1)c1ccco1 (stereo unspecified)
    -2%	10%	1	0.0%
#54 COc1ccc(N2CC(C(=O)N3CCN(Cc4ccc5c(c4)OCO5)CC3)CC2=O)cc1 (stereo unspecified)
    5%	8%	·	0.1%
#55 O=C(COc1ccccc1)N=C1SC2CS(=O)(=O)CC2N1c1ccccc1 (stereo unspecified)
    -1%	-12%	·	-0.5%
#56 CCOc1ccc2[nH]c(C)c(CN3CCCCC3)c(=O)c2c1
    -1%	-3%	-7	3.2%
#57 COc1cc(OC)c(C2C(C(=O)Nc3ccccc3)=C(C)Nc3ncnn32)cc1OC (stereo unspecified)
    -3%	-5%	-4	-4.7%
#58 COc1ccccc1NC(=O)Nc1ccccc1C(N)=O
    0%	8%	1	-3.0%
#59 NC(=O)COc1ccccc1C(=O)NC12CC3CC(CC(C3)C1)C2
    0%	-5%	·	?
#60 C=C(C)C1CC=C(C)/C(=N\NC(=O)CNc2cccc3ccccc23)C1 (stereo unspecified)
    -10%	-13%	4	1.5%

2 entries from above, reformatted:
entry | molecule | miR-21 FLuc | Rango dissoc inh | GLA inh pH 4.5 | Rango-impB inh
51 | CCC(CO)Oc1cc(NC(=O)c2ccccc2)c2ncn(C(C)C)c2c1 (stereo unspecified) | · | 1% | · | 0.4%
60 | C=C(C)C1CC=C(C)/C(=N\NC(=O)CNc2cccc3ccccc23)C1 (stereo unspecified) | -10% | -13% | 4 | 1.5%

Next part
Value order – miR-21 FLuc	Rango dissoc inh	GLA inh pH 4.5	Rango-impB inh
#61 Cn1cc(CCC(=O)NCc2cccc(Cl)c2)c2ccccc21
    1%	-6%	·	-2.0%
#62 CCOC(=O)c1ccc2[nH]cc(C(C)=O)c(=O)c2c1
    -5%	?	-8	?
#63 CN(C)[C@H]1N(C(=O)c2ccc(Br)cc2)N=C2c3ccccc3S(=O)(=O)N21
    -12%	6%	-3	10%
#64 CNC(=O)c1sc(Nc2ccc(OCc3ccccc3)cc2)nc1C
    10%	7%	·	-1.1%
#65 COc1ccc(NC(=O)Cn2nnc(C(N)=O)c2N)c(OC)c1
    -4%	-11%	3	4.7%
#66 CCOC(=O)c1[nH]c2ccc(Br)cc2c1NC(=O)CCN1CCCC(C)(C)C1
    -7%	9%	15	0.8%
#67 COc1ccc(S(=O)(=O)N2CCOCC2)cc1NC(=O)CSc1ncccn1
    ·	13%	·	-2.1%
#68 COc1cccc(C(C)NC(=O)Cc2cccs2)c1 (stereo unspecified)
    -4%	-8%	·	4.2%
#69 Cc1ccc(N=c2ssnc2Cl)cc1
    -13%	-4%	6	-0.8%
#70 CCc1ccccc1NC(=O)C1=CN2CCS(=O)(=O)N=C2C=C1
    ·	9%	·	2.7%
#71 COc1cc(S(=O)(=O)N2CCOCC2)ccc1NC(=O)CSc1n[nH]c(=O)[nH]c1=O
    -1%	-4%	6	-4.6%
#72 O=C(CN1C(=O)c2ccccc2C1=O)c1ccccc1
    -8%	2%	4	6.4%
#73 CC1CCCN(C(=S)Nc2ccc(S(=O)(=O)N3CCCCC3)cc2)C1 (stereo unspecified)
    -6%	-1%	-3	0.5%
#74 O=C(NCC1CC1)c1ccc2c3n(nc2c1)-c1ccc(Cl)cc1CO3
    ·	-12%	·	-2.2%
#75 O=C(C[C@@H]1C/C=C\C[C@H](NC(=O)OCC2c3ccccc3-c3ccccc32)C(=O)OC[C@@H]2CCCN2C1=O)N[C@@H](CO)Cc1ccccc1
    ·	15%	·	-2.9%
#76 NC(=S)N/N=C/c1ccc(-c2cc(Cl)cc(Cl)c2)o1
    -3%	-9%	2	-4.3%
#77 CC1Cc2ccccc2N1C(=O)CSc1nnc2n1C(C)(C)Cc1ccccc1-2 (stereo unspecified)
    15%	-5%	-4	0.0%
#78 CS(=O)(=O)c1ccccc1C(=O)N1CCN(S(=O)(=O)c2ccc(C3CCCCC3)cc2)CC1
    ·	8%	·	1.2%
#79 COc1ccc(/C=C2\N=C(C)OC2=O)cc1OC(C)=O
    -1%	6%	·	0.2%
#80 COc1ccc(S(=O)(=O)CCc2nc3ccccc3s2)cc1
    3%	1%	6	-0.7%
#81 CN(CCOc1ccccc1Cl)Cc1ccccc1
    -11%	2%	·	-1.2%
#82 COc1ccc(NC(=O)[C@H](C)NC(=O)[C@@H]2Cc3ccccc3CN2C(=O)OC(C)(C)C)cc1
    -1%	-9%	·	-2.3%
#83 CCc1c(C)nc2ncnn2c1NC1CCCc2ccccc21 (stereo unspecified)
    -2%	-3%	-8	0.0%
#84 CCN(CCCNC(=O)C1CCN(S(=O)(=O)c2c(C)[nH]c(=O)[nH]c2=O)CC1)c1cccc(C)c1
    1%	-6%	3	6.5%
#85 CC(C)=CCN1CCC(n2nccc2NC(=O)c2ccccc2Cl)CC1
    0%	-1%	·	2.3%
#86 O=C(CSc1n[nH]c(-c2ccncc2)n1)Nc1ccc(F)cc1
    7%	9%	·	2.8%
#87 CCCn1c2ccccc2c2nnc(SCC(=O)Nc3ncccn3)nc21
    -22%	-2%	-5	-0.2%
#88 CCNC(=S)Nc1cc(OC)c(NC(=O)c2ccco2)cc1OC
    0%	6%	-3	0.1%
#89 CC1(c2cc(C(F)(F)F)n3nc(C(=O)O)cc3n2)CC1
    -5%	-8%	-15	?
#90 Cc1cc(NC(=O)CCOc2ccccc2)no1
    -7%	10%	-8	-6.0%
#91 COc1ccc(N2CC(O)=C(c3nc(-c4ccc(F)cc4)cs3)C2=N)cc1
    -6%	-15%	-2	-2.4%
#92 O=C(CN1C(=O)NC2(CCCCCC2)C1=O)c1cccs1
    ·	-12%	·	0.1%

An excerpt; rates above refer to the full screens.
